From PubChem BioAssay
Ecoli growth: E. coli growth inhibition, primary screen, OD600; Escherichia coli growth, 23 h; active compounds read low; OD600 absorbance (test concentration not listed); hit rate 0.21% among 330,000;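 active = OD600 absorbance below the run mean of sample wells minus 3.6 SD, in any replicate, cut at about 0.56 in these data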;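 also: stock transfer was 300 nL into about 60 µL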
UCH37 DUB inh: inhibitors of human UCH37 deubiquitinase, primary screen, biochemical, Ub-AMC cleavage, fluorescence | purified proteasome/UCH37 | inhibition, % (no concentration beside the values) | Ubiquitin carboxyl-terminal hydrolase isozyme L5 (Homo sapiens), Q9Y5K5 | hit rate 0.33% among 330,000;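 active = mean of two replicates above 20%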;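 also: 0% = compound-free wells with enzyme and 100% = wells lacking proteasome; stock transfer was 100 nL into about 20 µL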
Target sequence (Q9Y5K5 whole entry, looked up): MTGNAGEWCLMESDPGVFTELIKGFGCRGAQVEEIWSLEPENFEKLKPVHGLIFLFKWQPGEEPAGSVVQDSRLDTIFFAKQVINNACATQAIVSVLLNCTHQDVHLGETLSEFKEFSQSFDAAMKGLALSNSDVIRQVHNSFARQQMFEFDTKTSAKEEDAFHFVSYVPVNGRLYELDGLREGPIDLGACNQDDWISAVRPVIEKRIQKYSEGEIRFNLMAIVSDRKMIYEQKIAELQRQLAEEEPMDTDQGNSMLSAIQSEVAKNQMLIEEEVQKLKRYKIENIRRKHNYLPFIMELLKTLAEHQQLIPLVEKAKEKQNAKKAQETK
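Material: human UCH37 enzyme supplied as purified proteasome complex / Amount: 0.15 nM proteasome as dispensed / Buffer or medium: pH 7.4 Tris-HCl (50 mM) with ovalbumin, ATP-MgCl2, DTT / Times: preincubation 30 min, reaction 25 min, room temperature / Technique: AMC fluorescence from Ub-AMC cleavage, excitation 355 nm, emission 460 nm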
FGF22 binding: binders of human FGF22 protein, primary screen, FGF22 synaptogenesis inhibitor project, biophysical, thermal shift, single point; hit rate 1.5% among 340,000; AID 651658, 2012; Fibroblast growth factor 22 (Homo sapiens), Q9HCT0; calls only at 9.99 µM; recombinant FGF22 thermal shift, SYPRO orange fluorescence; percent of sucrose octasulfate shift, DMSO zero;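 active = melting point raised past a set limit in the mean and every replicate; three in four hits are not shown here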
Target sequence (Q9HCT0 whole entry, looked up): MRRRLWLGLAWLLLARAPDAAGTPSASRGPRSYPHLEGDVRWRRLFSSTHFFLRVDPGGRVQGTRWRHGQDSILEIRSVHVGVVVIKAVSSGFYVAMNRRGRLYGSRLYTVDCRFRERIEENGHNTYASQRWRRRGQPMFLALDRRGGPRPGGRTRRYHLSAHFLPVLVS
rRNA inh HTS: reduced GFP signal of wild-type E. coli, primary screen, bacterial rRNA inhibitor project, GFP/RFP fluorescence, OD600, single point | AID 720706, 2013 | hit rate 1.6% among 350,000 | GFP signal change (wild-type ribosome), % (no concentration beside the values) | E. coli WT GFP vs humanized-ribosome RFP mutants, 24 h; active compounds read low; DMSO median 0, no signal -100;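 active = significant combined selectivity score with lowered wild-type GFP, culture density cut under 30%, mutant RFP and density less affected; inactive = any of these conditions unmet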; also: one replicate is shown; some compounds called inactive have numbers as strong as hits
HNF4A DNA FP: change in binding of human HNF4A to DNA, primary screen, biochemical, fluorescence polarization, FITC-DNA | 1 h | activity change, % at 10 µM | hit rate 0.3% among 360,000; in the data active = activity change above about 30%, passing the limit was not always enough;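 also: controls were the assay level and a saturating level of protein; the project sought stronger binding though the title names inhibitors; some compounds called inactive have numbers as strong as hits; positive values seem to mean higher polarization but the record does not say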
Target sequence (P41235 whole entry, looked up): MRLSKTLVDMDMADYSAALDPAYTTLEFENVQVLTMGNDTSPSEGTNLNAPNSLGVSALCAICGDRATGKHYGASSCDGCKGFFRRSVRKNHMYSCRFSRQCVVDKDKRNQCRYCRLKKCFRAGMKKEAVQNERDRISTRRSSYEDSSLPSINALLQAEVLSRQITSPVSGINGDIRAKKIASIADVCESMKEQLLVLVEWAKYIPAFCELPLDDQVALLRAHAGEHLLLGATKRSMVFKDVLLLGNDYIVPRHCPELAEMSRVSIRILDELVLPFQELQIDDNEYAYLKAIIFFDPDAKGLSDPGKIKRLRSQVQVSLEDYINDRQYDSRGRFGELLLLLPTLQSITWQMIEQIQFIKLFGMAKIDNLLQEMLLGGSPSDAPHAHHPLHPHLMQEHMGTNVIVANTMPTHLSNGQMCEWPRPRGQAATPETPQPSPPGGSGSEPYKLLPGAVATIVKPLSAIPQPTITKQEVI
ALR inh: inhibitors of human ALR sulfhydryl oxidase, primary screen, biochemical, H2O2 detection, HRP-luminol luminescence, single point. purified ALR, DTT oxidation. inhibition, % (no concentration beside the values). hit rate 3.8% among 290,000. AID 485317, 2010;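 active = mean and each replicate at 75% or more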;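 also: stock transfer was 7.5 nL into about 7.5 µL; 0% = neutral wells and 100% = wells with inactivated enzyme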
B2AR ag: beta2AR agonists driving receptor internalization, primary screen, cell-based, FAP fluorogen, flow cytometry | hit rate 0.43% among 340,000 | response, % (test concentration not listed) | Am2.2-beta2AR cells; reference of the scale not given here | Beta-2 adrenergic receptor (Homo sapiens), P07550;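 active = response above a set limit, near 3 SD of response in nonfluorescent compounds, cut at about 42% in these data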;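 also: stock transfer was 100 nL into about 11 µL; a reference agonist was the positive control; negative values mostly stem from fluorescent compounds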
rRNA inh HTS OD600: second read-out of rRNA inh HTS, no call of its own (marks repeat the call); OD600 change, %; measured here: OD600 growth;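 optical density of the mix in the first replicate; 0 = DMSO median and -100 = no signal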
rRNA inh HTS RFP: recorded beside rRNA inh HTS, whose call it bears; RFP signal change, %; measured here: RFP humanized mutant strains;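 first replicate; 0 = DMSO median and -100 = no signal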
Active calls of the source: *; i = inactive; . = no result given; & = joins results of further samples. This is a subset; rates above refer to the full screens.

Molecule	Ecoli growth	UCH37 DUB inh	FGF22 binding	rRNA inh HTS	rRNA inh HTS OD600	rRNA inh HTS RFP	HNF4A DNA FP	ALR inh	B2AR ag
CCOc1ccc(S(=O)(=O)Nc2cccc(-c3ccc(N4CCCCCC4)nn3)c2)cc1	0.74	0.5	i	-4	-5	0.2	1.6	-3	-5
Cc1ccc(S(=O)(=O)N2CCCC(C(=O)NCCC(C)C)C2)cc1 (stereo not drawn)	0.68	-0.8	i	1	2	-8.2	-4.2	-2	-5
OCc1cn(-c2ccccc2)nc1-c1cc2ccccc2o1	0.69	-0.4	i	-18	0	15	-1.1	.	-8
COc1cc([N+](=O)[O-])cc(/C=N/NC(=O)Cn2nc(C)cc2C)c1O	.	.	i	-5	0	-0.4	1.5	5	-1
Cn1c(=O)c2c(nc(Br)n2CCCc2ccccc2)n(C)c1=O	0.72	2.8	.	.	.	.	0.4	1	-7
O=C(CSc1ccc(Cl)cc1)Nc1ccc(-c2nc3ccccc3[nH]2)cc1	.	.	.	.	.	.	13	14	-15
COc1cccc(NC(=O)CCC2CCN(C(=O)c3c(C)noc3C)CC2)c1	0.68	0.0	i	4	1	-2.0	3.3	-9	7
CCN1C(=O)CC(NC2CCN(C(=O)c3ccc(F)cc3)CC2)C1=O (stereo not drawn)	0.7	-2.5	i	8	18	0.3	2.0	-4	-3
O=S(=O)(c1cccs1)N1CCN(CCOc2ccc(Cl)cc2)CC1	0.72	6.0	i	-31	-41	-6.2	2.9	-2	1
O=C1c2ccccc2C(=O)N1CCCc1nc(-c2ccccc2)no1	0.66	1.1	i	2	5	-5.9	22	0	-4
Cc1ccc(N2CCN(C(=O)c3ccccc3NC(=O)/C=C\C(=O)O)CC2)cc1	0.8	4.0	.	.	.	.	1.7	.	8
CCOC(=O)c1ccc(NC(=S)N2CCN(Cc3ccccc3)CC2)cc1	0.69	0.3	.	.	.	.	3.8	4	-10
CCOC(=O)COc1ccc(CCNC(C)=O)cc1	0.73	4.2	.	.	.	.	0.0	-3	-1
CCc1nc2ccc(C(=O)Nc3cc(-c4ccccc4)ccc3OC)cn2c1N(CCN(C)C)CC1CC1	.	.	i	-58	-77	-19	-0.8	.	.
Cc1cc2ccccn2c1C(=O)c1ccc([N+](=O)[O-])o1	0.69	1.5	i	18	5	2.1	-0.5	-133	7
O=C(N/N=C/c1ccncc1)c1cccc(NC(=O)c2ccccc2Cl)c1	.	.	i	-3	-3	0.0	1.4	-2	7
O=C(COC(=O)c1ccc(C(F)(F)F)cc1)Nc1cccc(S(=O)(=O)N2CCCCC2)c1	0.69	5.1	i	-5	-3	4.1	6.7	16	7
Cc1c(C(C)NC(=O)c2ccc3nc(Cc4ccccc4F)oc3c2)cnn1C (stereo not drawn)	0.67	4.0	i	-7	-7	-0.3	10	-2	8
COC(=O)c1cccc(NC(=O)C2C3CCC(C3)C2C(=O)O)c1 (stereo not drawn)	0.7	0.1	.	.	.	.	-0.3	-8	3
O=C(N/N=C/c1ccccn1)C1CC1	.	.	.	.	.	.	1.9	4	-6
Cc1ccc(S(=O)(=O)NCC(=O)OCC(=O)N2C(C)CCCC2C)cc1 (stereo not drawn)	0.68	0.9	i	6	7	-5.3	-4.1	-4	4
COCCNC(=O)c1ccc(-n2c(SCc3ccncc3)nc3ccccc3c2=O)cc1	0.64	2.5	i	1	7	-1.9	2.2	-8	-2
O=C(CCc1ccccc1)NCCSc1ccccc1	0.71	-0.5	i	-17	-8	-4.7	-6.7	-23	-1
COc1cc(/C=N/Nc2nc(Nc3ccccc3)nc(N3CCCCC3)n2)ccc1OCC(=O)O	.	.	.	.	.	.	0.1	37	-4
CCOc1ccc(S(=O)(=O)NCc2cccnc2)cc1NC(=O)c1ccccc1	.	.	i	0	-2	1.2	-0.5	.	-4
CCOC(=O)CSc1ccc2nnc(-c3cccnc3)n2n1	0.68	-20	i	12	12	1.2	12	0	3
O=C1[C@H](Oc2ccccc2)[C@@H](c2ccccc2)N1c1ccncc1	0.74	-0.8	i	.	.	.	2.7	.	6
CCCN(CC(=O)Nc1ccc(Cl)cc1Cl)Cc1cc(=O)n2ccsc2n1	0.7	0.3	i	-46*	6.0*	-9.5*	-0.5	-6	0
O=C(Nc1ccc(Cl)c(-c2nc3ccccc3[nH]2)c1)c1ccc2c(c1)OCO2	0.67	-2.2	.	.	.	.	1.5	-8	13
CCCN1C(=O)/C(=C/c2ccc(C)o2)SC1=Nc1ccc(OC)cc1	0.76	-0.7	.	.	.	.	-1.0	29	16
Cn1nc(C(C)(C)C)cc1NC(=O)C1(C)CCN1C(=O)Cc1ccc(-c2ccccc2)cc1 (stereo not drawn)	.	.	i	-11	-24	5.7	0.8	.	.
Cc1cc(Cl)ccc1NC(=S)Nc1ccccn1	0.72	4.6	i	8	2	-1.5	0.8	.	-9
CCc1nc2c(OCc3ccc(F)cc3)cccn2c1N(C)C(=O)COc1ccccc1	.	.	i	-12	-9	5.0	-2.6	.	.
CN(C)c1ccc(C=NNc2ccccn2)c(Cl)c1	.	.	i	1	8	-3.1	-1.1	.	-9
Cc1sc(NC(=O)c2ccco2)c(CN2CCC(C)CC2)c1C	0.74	2.8	.	.	.	.	2.7	51	0
CC(C)c1ccc(S(=O)(=O)N2CCN(CC(O)CN3CCOCC3)CC2)cc1 (stereo not drawn)	0.71	0.1	i	1	4	-0.7	-0.8	-13	-10
O=C(/C=C/c1cccc([N+](=O)[O-])c1)NCC1CCCO1 (stereo not drawn)	0.71	3.4	.	.	.	.	-6.6	-7	7
CC(C)CC(NC(=O)C1CCCN1C(=O)[C@@H](C)NC(=O)OCc1ccccc1)C(=O)NCC(N)=O (stereo partly drawn)	0.68	0.6	i	8	13	1.7	3.5	2	-7
CC(C)(C)C(=O)Nc1ccc(C(=O)OC2CCCCC2)cc1	0.7	3.4	.	-4	-11	-1.5	-1.2	55	7
CC1CCN(S(=O)(=O)c2ccc3c(c2)c(=O)c(C(=O)NCc2ccco2)cn3C)CC1	.	3.4	.	.	.	.	2.6	3	-8
COCCNc1oc(-c2ccccc2Cl)nc1S(=O)(=O)c1ccc(C)cc1	0.69	-5.5	i	7	4	1.0	2.5	9	1
FC(F)(F)c1cccc(NC(=S)N2CCN(c3ccccc3)CC2)c1	0.73	1.5	i	16	8	-0.2	-4.0	2	7
CCCCN(C)C(=O)C1CCCN(S(=O)(=O)c2ccc3c(c2)oc(=O)n3C)C1 (stereo not drawn)	0.71	1.6	i	-2	-13	2.6	0.0	-22	-12
Cc1nc(SCC(=O)NC2(C#N)CCCC2)n(CC(C)C)c1C	0.7	-0.3	i	-1	2	1.0	-0.7	.	3
O=C(CSC1=NCCS1)Nc1nc2ccccc2s1	0.67	5.7	.	.	.	.	0.2	90*	0
C[C@@H](NC(=O)C[C@@H]1C[C@@H]2c3cc(NS(=O)(=O)c4ccc(F)cc4)ccc3O[C@@H]2[C@@H](CO)O1)c1ccccc1	.	.	i	0&-3	-10&-18	-7.6&2.5	-6.0	.	.
CCSCCOC(=O)C1=C(C)N(C)C(=O)NC1c1cc(OC)ccc1OC (stereo not drawn)	0.72	1.5	.	.	.	.	-2.6	1	-4
CCOc1ccc(CCNC(=O)C2CCN(S(=O)(=O)N3CCC(C)CC3)CC2)cc1OCC	0.72	2.0	.	.	.	.	-1.3	-5	1
CN(C)C=NCCn1c(N2CCOCC2)nc2c1c(=O)n(C)c(=O)n2C	0.7	0.3	.	.	.	.	1.0	.	3
O=S(=O)(NCc1csc(-c2ccccc2)n1)c1ccc(Cl)s1	0.76	1.1	i	-43	-66	3.7	3.5	-7	3
NS(=O)(=O)CCCc1ccccc1	0.68	0.8	i	7	-3	-1.5	-0.8	2	0
COc1ccc(CNC(=O)C(c2ccncc2)N(C(=O)Cc2cccs2)c2ccccc2C)cc1 (stereo not drawn)	0.72	3.4	.	.	.	.	-0.6	-5	-1
C/C=C\C(=O)Nc1cccc(C2=NOC3(C2)C[C@@H](C(N)=O)N(C(=O)C2(C)CC2)C3)c1 (stereo partly drawn)	.	-1.6	i	10	9	8.6	0.4	.	-1
COc1cccc(-c2sc3ccc(OC)cc3c2-c2ccc(C(N)=O)cc2)c1	0.79	1.6	i	13	7	-6.5	-5.5	-3	2
Cc1cccc(Nc2c(-c3ccc(O)cc3)nc3ncccn23)c1	.	.	i	-13	-18	3.7	0.4	23	-11
CC(C)=CCN1CCN(Cc2cn[nH]c2C2CCCCC2)CC1CCO (stereo not drawn)	0.72	-0.3	i	15	7	0.1	.	6	.
O=C(Nc1ccc(S(=O)(=O)N2CCCC2)cc1)C1CC(=O)N(c2ccc(F)cc2)C1 (stereo not drawn)	0.69	1.7	i	-4	-5	0.0	-2.3	.	2
COc1ccc(/C=C/C(=O)NCC(c2ccc(F)cc2)N2CCOCC2)cc1OC (stereo not drawn)	0.7	-7.8	i	-14	-9	-5.2	5.3	-8	14
O=C(Nc1ccc(F)c(S(=O)(=O)N2CCOCC2)c1)C1CCCCC1	0.65	3.2	i	0	-3	-1.1	0.3	.	-5
Nc1n[nH]c(N)c1N=Nc1ccc(Cl)cc1Cl	0.67	3.6	i	-54	-73	-17	1.9	8	-4

An excerpt from above, limited to HNF4A DNA FP:
Molecule | HNF4A DNA FP
O=C(Nc1ccc(S(=O)(=O)N2CCCC2)cc1)C1CC(=O)N(c2ccc(F)cc2)C1 (stereo not drawn) | -2.3
COc1ccc(/C=C/C(=O)NCC(c2ccc(F)cc2)N2CCOCC2)cc1OC (stereo not drawn) | 5.3
O=C(Nc1ccc(F)c(S(=O)(=O)N2CCOCC2)c1)C1CCCCC1 | 0.3

The list goes on:
Molecule	Ecoli growth	UCH37 DUB inh	FGF22 binding	rRNA inh HTS	rRNA inh HTS OD600	rRNA inh HTS RFP	HNF4A DNA FP	ALR inh	B2AR ag
Cc1ccccc1Nc1nnc(C)c(=O)[nH]1	0.7	5.0	.	.	.	.	-4.4	.	3
O=C(N/N=C/c1ccco1)C(O)C(O)C(=O)N/N=C/c1ccco1 (stereo not drawn)	.	.	i	-44	-58	-4.2	-3.7	-4	-18
Cc1nc2ccccc2c(=O)n1NC(=O)c1ccc(Cl)c(Cl)c1	0.66	0.4	i	-1	9	1.1	1.6	-3	-8
CC1C=CC(C)C(C(=O)O)C1C(=O)O (stereo not drawn)	0.64	2.8	.	26	12	3.3	-28	-17	2
COc1ccc(CNC(=O)COC(=O)c2cc(S(=O)(=O)N3CCOCC3)ccc2O)cc1OC	0.72	-6.2	i	10	14	2.7	-0.7	-2	-2
CN1C(=O)CC(C(=O)O)SC1=Nc1cc(Cl)c(O)c(Cl)c1 (stereo not drawn)	0.69	1.9	.	.	.	.	-1.9	99*	3
CCCc1cc(C(N)=O)c(NC(=O)c2cc(C)on2)s1	0.74	-1.3	i	-6	-3	-0.9	6.1	3	-7
